# Bioassay records (PubChem BioAssay)
# NPYLR7 agonist: mosquito NPYLR7 agonism; HEK293T NPYLR7/Galpha15, GCaMP6s calcium fluorescence; activation, % at 10 µM; actives 0.15% (n = 270,000); AID 1259423; in the data active = activation above about 40%;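 also: 0% = vehicle and 100% = reference agonist at the receptor; some compounds past the cut are filed as inactive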
# NPYLR7 agonist max-min: further read-out of NPYLR7 agonist, marked with its call; activation, %; measured here: Max-Min RFU normalised activation; some inactives read as strong as hits;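 span of the calcium signal over five minutes; 0% = vehicle and 100% = native peptide agonist; compound fluorescence can raise it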
# An asterisk follows results filed as active; & = joins results of further samples; ! = a repeat was not active. An excerpt; count on the stated rates, not on these rows.
cpd	mol	NPYLR7 agonist max-min	NPYLR7 agonist
1	Cc1c(C)n2c3c(=O)n(Cc4ccccc4Cl)c(=O)n(C)c3nc2n1CCN(C)C	-2	-3
2	CCSc1nnc(NC(=O)c2cccc(C(=O)Nc3nnc(SCC)s3)n2)s1	-12	-8
3	CCOc1ccc(NC(=O)N(CC(=O)N(Cc2ccccc2)Cc2ccc(C)s2)CC(C)CC)cc1 (stereo unspecified)	1	6
4	CC(C)S(=O)(=O)c1ncc(CN(C)Cc2cnccn2)n1Cc1ccccc1F	2	6
5	Cc1ccn2c(=O)nc(SCC(=O)N(C)c3ccccc3)nc2c1	1	4
6	Cc1cc(F)ccc1NC(=O)CCNC(=O)c1c(O)cccc1O	-2	-1
7	Cc1sc2nc(C3CC3)nc(N3CCN(C(=O)Nc4ccccc4Br)CC3)c2c1C	7	-8
8	Cn1c(Nc2ccc(N3CCCC3)cc2)c(C#N)c(=O)n(C)c1=O	3	6
9	CCOC(=O)c1[nH]c(C)c(C(=O)CN(CC)S(=O)(=O)c2ccc(Br)cc2)c1C	18	16
10	CCc1ncn(C)c1NC(=O)c1cc(C(C)C)n(C(C)(C)C)n1	-8	-6
11	CCCc1cc(-c2ccccc2C(C)=O)nc(C)n1	1	3
12	COc1ccc(CCN(Cc2ccc(C)s2)C(=O)CN(C(=O)Nc2ccc(Cl)c(Cl)c2)C(C)C)cc1OC	1	-3
13	CC(C)C(C)N(Cc1ccc(Cl)cc1)Cc1nc(C(=O)N2CCCCC2)co1 (stereo unspecified)	16	4
14	CCSc1nc(CC(=O)NCc2c(F)cccc2F)cs1	-9	-4
15	COc1ccc(CNC(=O)c2cccnc2N2CCN(C(=O)c3ccc(C#N)cc3)CC2)cc1	0	3
16	CCOC(CC)c1n[nH]c(=O)n1-c1c(C)noc1C (stereo unspecified)	6	8
17	Cc1cc(C)c(C)c(S(=O)(=O)N2CCC(C(=O)N3CCCCC3C)CC2)c1C (stereo unspecified)	2	5
18	COc1ccc(Cl)cc1NS(=O)(=O)c1cc(F)ccc1F	-3	-4
19	Cc1cccc2c(=O)n(CCC(=O)NC(C)c3cccs3)cnc12 (stereo unspecified)	-3	-1
20	Cn1ccsc1=NC(=O)c1cccc(NC(=O)c2ccc(F)cc2)c1	1	5

# Other records follow:
cpd	mol	NPYLR7 agonist max-min	NPYLR7 agonist
21	CCC(C)N(Cc1ccncc1)C(=O)c1nn(C)c2ccccc12 (stereo unspecified)	-10	-3
22	Cc1ccn2c(=O)cc(COC(=O)CCNC(=O)c3ccc(Cl)cc3)nc2c1	5	14
23	O=C(c1nn(-c2ccccc2)c(=O)c2ccccc12)N1CCC(C(=O)N2CCOCC2)CC1	4	4
24	O=C(NC1CCCc2ccccc21)C(C1CCCC1)N1CCN(C(=O)c2cccc(F)c2)CC1 (stereo unspecified)	-3	-5
25	CCc1ccc2c(c1)NC(=O)C2(C)Cc1ccccc1F (stereo unspecified)	0	1
26	CCOC(=O)c1ccc2c(c1)nc(SCc1cc(OC)cc(OC)c1)n2CCOC	0	3
27	Cc1noc2nc(-c3ccco3)cc(C(=O)NCCC3=CCCCC3)c12	5	10
28	COC(=O)c1cccc(C2CC(=O)Nc3cc4c(cc32)OCC(=O)N4C)n1 (stereo unspecified)	-5	11
29	CC(=O)Nc1nc2sc(C)c(C)c2c(=O)s1	0	1
30	COc1ccc(CN(CCc2c[nH]c3ccccc23)C(=O)CN(C(=O)C2CCC2)C2CC2)cc1	-7	-6
31	O=C(NCc1cccnc1)c1nn(-c2ccc(F)cc2)c2c1CCCC2	-17	-18
32	COCCN(C(=O)Nc1ccccc1F)C1CCC2(CC1)C(=O)N(C)CCc1ccccc12 (stereo unspecified)	8	19
33	Cc1cc(C)n(S(=O)(=O)c2ccc3c(c2)C(=O)c2ccccc2C3=O)n1	-16	-12
34	Cc1cccc(CSc2nnc(CNC(=O)Nc3ccc(C)cc3C)n2-c2cc(Cl)ccc2Cl)c1	8	6
35	CC(C(=O)NCCn1cccc1)n1ccnc1-c1ccccc1 (stereo unspecified)	1	1
36	CC1SCCN(S(=O)(=O)c2c[nH]c3ncccc23)C1C (stereo unspecified)	-2	0
37	c1coc(C(CNCc2ccc(-c3nc4ccccc4s3)o2)N2CCCC2)c1 (stereo unspecified)	2	3
38	C=CCCC(O)CN(Cc1cccc(C)c1)Cc1ccco1 (stereo unspecified)	1	-3
39	CCOc1ccc(NC(=O)NCCN(C(C)C)C(C)C)cc1	-21	-11
40	CC(c1ccccc1)N(Cc1cc(N)ccc1N(C)C)C(=O)c1ccccc1Cl (stereo unspecified)	1	3

# Next records
cpd	mol	NPYLR7 agonist max-min	NPYLR7 agonist
41	COC(=O)c1ccc(CSc2nnc(C)c3cnn(-c4ccccc4)c23)o1	-15	-9
42	CCC(=O)C1=C(c2ccccc2)N(C(=O)CC)n2c(nnc2-c2ccc(C)cc2)S1	9	11
43	O=C(NCCN1CCCC1)C1CC(=O)N(C2CCCCC2)C1 (stereo unspecified)	0	4
44	CCOC(C)c1noc(COc2ccc(C=O)cc2)n1 (stereo unspecified)	-2	0
45	CC(C)(C)c1ccc(C(=O)N2CCCC(CO)(Cc3ccccc3F)C2)cc1 (stereo unspecified)	7	7
46	CCOC(=O)C1CCN(CC(=O)N2N=C(c3ccccc3OC)CC2c2ccccc2)CC1 (stereo unspecified)	12	12
47	Cc1cc(C)cc(OCCNC(=O)c2ccc(F)c(F)c2)c1	-8	-7
48	C=CCNC(=O)C(NC(=O)c1cccc(OC)c1)C1CCN(C(=O)c2ccc(F)cc2)CC1 (stereo unspecified)	7	5
49	COCCN(Cc1cccc(OS(=O)(=O)c2cccc(C(F)(F)F)c2)c1)C(=O)c1ccc(F)cc1	14	1
50	O=c1oc2ccccc2cc1-c1csc(Nc2cccc3ccccc23)n1	-11	-4
51	CCCCc1ncc(CN2CCN(S(=O)(=O)c3ccccc3)CC2)[nH]1	-6	1
52	N#Cc1cccnc1NCC1CCCc2ccccc21 (stereo unspecified)	8	2
53	CCOC(=O)c1cnc(-c2ccccc2)nc1NCCc1cccc(OC)c1	-8	-5
54	COc1ccc(-c2cn3nc(CNc4ccc(F)cc4)n4c3c2CCCC4)cc1OC	5	7
55	Cc1ccc(C)c(C(NC(=O)c2cc(C)nc(N)n2)c2cccnc2)c1 (stereo unspecified)	-7	-3
56	O=C(NC(C(=O)NCc1ccco1)C1CCN(C(=O)C2CCCC2)CC1)c1ccc(F)cc1 (stereo unspecified)	-3	-4
57	CCOc1nc(-c2ccc(C)cc2)n(-c2cccc(NC(=O)c3ccc(C(F)(F)F)cc3)c2)n1	4	7
58	Cc1ccc2nc(SCc3cccc(C(F)(F)F)c3)nc(=O)n2c1	0	3
59	O=C(Oc1cccc2cccnc12)c1ccc(F)cc1	-5	-3
60	COc1ccc(-c2csc(N3N=C(c4ccccc4)/C(=N/Nc4ccc(Cl)cc4C(=O)c4ccccc4)C3=O)n2)cc1	12	16

# Record cards, as listed above:
# CCCCc1ncc(CN2CCN(S(=O)(=O)c3ccccc3)CC2)[nH]1 is listed as NPYLR7 agonist max-min: -6; NPYLR7 agonist: 1
# O=C(NCCN1CCCC1)C1CC(=O)N(C2CCCCC2)C1 (stereo unspecified) is listed as NPYLR7 agonist max-min: 0; NPYLR7 agonist: 4

# (further entries)
cpd	mol	NPYLR7 agonist max-min	NPYLR7 agonist
61	O=C(/C=C/c1ccc2c(c1)OCO2)N1CCCC2CCCCC21 (stereo unspecified)	-11	-7
62	CCOC(=O)C(c1cccc(OC)c1)C1C=CC(NC(=O)c2cccs2)C1 (stereo unspecified)	6	5
63	CC(c1ccc(-n2cncn2)cc1)N(C)C(=O)CCCNC(=O)c1cccs1 (stereo unspecified)	20	-1
64	Cc1cc2c(c(=O)[nH]1)C(=O)OC2	0	-1
65	O=C(Nc1cccc(-n2cccn2)c1)C1CCCN(C2CCSCC2)C1 (stereo unspecified)	1	10
66	Cc1noc(C)c1S(=O)(=O)N1CCC(C(=O)NCc2ccc3c(c2)OCCO3)CC1	1	-1
67	Cc1[nH]c(C2CCCN2C(=O)Nc2nncs2)nc1-c1ccccc1 (stereo unspecified)	-3	0
68	Cc1ccc(-c2nc3ccccn3c2NC(=O)CC(C)C)cc1	-3	-5
69	CC(C)c1nc(CCN(C)C(=O)c2nc3c(s2)CCCC3)no1	-7	-3
70	Cc1ccc(-n2c(Cc3ccccc3)nnc2SCc2ccc(C(=O)O)cc2)cc1	-8	-2
71	Cc1cc(CC(=O)N2CCN(C(=O)CCC(C)C)CC2)no1	3	5
72	COc1cccc(-c2cccc(-c3ccc(NC(=O)C(C)(C)OC(C)=O)cc3)n2)c1	-9	-4
73	CCOC(=O)C1=C(C)N=c2s/c(=C\c3ccc(Cl)c(Cl)c3)c(=O)n2C1c1cccs1 (stereo unspecified)	14	9
74	COCc1cc(C)nc(N/N=C\c2cc(Br)ccc2OC)c1C#N	6	-1
75	CCCCC(CC)CN=C(N)NC(N)=NCCCCCCN=C(N)NC(N)=NCC(CC)CCCC (stereo unspecified)	45*!	46*!
76	Cc1c(OCc2nn[nH]n2)ccc2c1oc(=O)c1ccccc12	-12	-7
77	O=C(c1ccc(-c2cccnc2)nc1)N1CCCN(C2CCCCC2)CC1	-2	0
78	CC(c1nc2ccccc2c(=O)[nH]1)N1CCN(S(=O)(=O)c2c(Cl)cccc2Cl)CC1 (stereo unspecified)	0	-1
79	CCCC1(NC(=O)Cc2ccc(F)c(F)c2F)CC1	-4	-2
80	O=C(NC1CC1)C1CCN(C(=O)c2sccc2-n2cccc2)CC1	1	2

# Values in list order from above:
# NPYLR7 agonist, nos. 55–59 → -3, -4, 7, 3, -3
# NPYLR7 agonist max-min, nos. 55–59 → -7, -3, 4, 0, -5

# Single values from the results shown.
# COCc1cc(C)nc(N/N=C\c2cc(Br)ccc2OC)c1C#N in NPYLR7 agonist has -1
# CC(c1ccc(-n2cncn2)cc1)N(C)C(=O)CCCNC(=O)c1cccs1 (stereo unspecified) in NPYLR7 agonist max-min has 20

# Other results follow:
cpd	mol	NPYLR7 agonist max-min	NPYLR7 agonist
81	Cc1ccc(-n2nc(C)c3c(=O)c(C(=O)N4CCc5ccccc54)c[nH]c32)cc1	22	9
82	CC(=O)Nc1ccc(SCCCC(=O)Nc2ccc(F)c(Cl)c2)nn1	2	1
83	O=C(Cn1ncc(Cl)c(Cl)c1=O)c1cc(F)ccc1F	1	3
84	CCN(C(=O)c1ccc(-c2ccccc2)n1C)C1CC(=O)NC1=O (stereo unspecified)	20	1
85	c1ccc(NC2CCCN(C3CCCC3)C2)cc1 (stereo unspecified)	-7	-6
86	CN(CCc1nc2ccc(F)cc2[nH]1)C(=O)CS(C)(=O)=O	6	11
87	O=C(CN1CCN(Cc2ccsc2)CC1)Nc1cccc(Cl)c1Cl	4	10
88	CCCCCn1cc(C2CCN(S(=O)(=O)c3c(F)c(Br)cc(F)c3Br)CC2)c2ccccc21	20	27
89	CC(C)c1ccc(-c2nnc(NC(=O)C3=COCCO3)s2)cc1	0	-1
90	CN(Cc1ccc(OC(F)F)cc1)S(=O)(=O)c1cccc(C#N)c1	20	0
91	Cc1cc2cc(CCNC(=O)C(C)Oc3ccccc3)c(=O)[nH]c2cc1C (stereo unspecified)	6	9
92	O=C(O)c1ccccc1-c1c(-c2ccccc2)ncn1CC1COCCO1 (stereo unspecified)	6	4
93	Cc1ccc(C(=O)NCC(O)c2ccc(Cl)s2)c(=O)[nH]1 (stereo unspecified)	2	2
94	CC(C)N(C(=O)CSc1ccc(NC(=O)c2ccccc2)nn1)C(C)C	15	14
95	CC(C)(C)C(=O)Nc1ccnn1C1CCN(C(=O)Cc2cccc3ccccc23)CC1	5	6
96	CCOc1ccc(S(=O)(=O)NC2=NCCCCC2)cc1	-1	-1
97	C[C@@H](NC(=O)OC(C)(C)C)C(=O)N1CCCC(N2CCCC2)C1 (stereo partly specified)	3	4
98	Cc1ccc(-c2cc(C(=O)N3CCCC(O)C3)c3c(C)noc3n2)s1 (stereo unspecified)	4	3
99	CCOc1ccc(-c2nc3ccc(C)cn3c2Nc2c(C)cccc2C)cc1	8	2
100	Cc1cccc(NC(=O)CN2CCN(C(=O)CN3C(=O)NC4(CCCCC4)C3=O)CC2)c1C	-9	-8

# Going on with the list.
cpd	mol	NPYLR7 agonist max-min	NPYLR7 agonist
101	COc1cccc(C(=O)N(CCN2CCOCC2)Cc2c(-c3ccccc3)noc2N2CCCC2)c1	12	9
102	COc1ccc(Nc2nc(N)nc(CSc3ncccn3)n2)cc1	-7	-4
103	NS(=O)(=O)c1ccc(NC(=O)C2CCCN(c3ccc(-c4ccco4)nn3)C2)cc1 (stereo unspecified)	-13	-9
104	Cc1nc(N(C)C2CCCCC2)ncc1C(C)NC(=O)C1CCOCC1 (stereo unspecified)	4	6
105	CC1(C)CN(C(=O)Nc2ccc(OC(F)F)cc2)CCS1=O (stereo unspecified)	0&-26	2&-26
106	CCc1[nH]c2c(CNCc3cccn3-c3cccnc3)cc(F)cc2c1C	15	21
107	Cc1ccc2nc(C3CCCN3C(=O)c3cn(Cc4ccc(F)cc4)nn3)[nH]c2c1 (stereo unspecified)	3	6
108	Cc1nccc(-c2cccc(NC(=O)C(NC(=O)OCc3ccccc3)SC(C)C)c2)n1 (stereo unspecified)	-27	-18
109	Cc1ccc(S(=O)(=O)Nc2ccc(Nc3cc(-c4cccc5ccccc45)ncn3)cc2)cc1	4	8
110	CC(C)CC(=O)NNC(=O)C(C)N1CC(C)OC(C)(C)C1 (stereo unspecified)	4	14

# Ordered by length of the SMILES (lowest first): part of the list above
cpd	mol	NPYLR7 agonist max-min	NPYLR7 agonist
61	O=C(/C=C/c1ccc2c(c1)OCO2)N1CCCC2CCCCC21 (stereo unspecified)	-11	-7
69	CC(C)c1nc(CCN(C)C(=O)c2nc3c(s2)CCCC3)no1	-7	-3
50	O=c1oc2ccccc2cc1-c1csc(Nc2cccc3ccccc23)n1	-11	-4
